GLA inh pH 4.5 – inhibitors of human alpha-galactosidase A at pH 4.5; P06280; purified enzyme, 4-MU-alpha-Gal fluorescence, pH 4.5; activity change, negative = inhibition, % at 105 µM; 230,000 tested, under 10 active; inconclusive = small, poorly fitted or top-dose-only inhibition, or a rising curve; inactive = flat fitted curve, though single readings scatter; no compound was filed as active;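 also: 0% = full activity with enzyme and -100% = basal without enzyme; dose as in the result columns while the protocol names 77 µM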
Target sequence (P06280 whole entry, looked up): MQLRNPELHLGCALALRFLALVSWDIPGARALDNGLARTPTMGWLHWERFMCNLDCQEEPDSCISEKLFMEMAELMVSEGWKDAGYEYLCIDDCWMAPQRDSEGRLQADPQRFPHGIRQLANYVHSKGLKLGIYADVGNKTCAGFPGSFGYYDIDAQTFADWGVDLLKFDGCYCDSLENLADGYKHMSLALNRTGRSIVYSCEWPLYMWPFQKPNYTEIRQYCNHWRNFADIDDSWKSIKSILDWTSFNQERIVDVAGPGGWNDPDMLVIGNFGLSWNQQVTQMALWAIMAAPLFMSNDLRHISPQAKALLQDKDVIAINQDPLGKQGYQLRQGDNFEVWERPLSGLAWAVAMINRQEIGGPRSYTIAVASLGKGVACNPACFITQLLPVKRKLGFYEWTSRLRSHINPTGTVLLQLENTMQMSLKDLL
Rango dissoc inh – inhibition of RanGTP-driven Rango-importin beta dissociation. 340,000 compounds, 0.071% hits. Potency, µM (titrated, usually from 46.1 µM), for inactives: top-dose activity change, negative = inhibition. O95149+P62826. Biochemical FRET Rango-importin beta, RanGTP-induced dissociation. AID 540253; active means falling FRET ratio curve, often poorly fitted, with flat reads before Ran was added; inconclusive means other falling curves, or compound fluorescence or quenching; inactive means flat or rising ratio curve;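 also: potency is read from the fitted curve at half-maximal effect; % of control where 0% means no effect; nearly all actives have a fitted effect of over 45% in size; -100% = wells without RanGTP and RCC1; the record marks most hits as doubtful in a second field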
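FRET read at 45 min, room temperature: inhibitors block the CFP/YFP signal rise when RanGTP (0.6 uM Ran, 2 mM GTP, 0.2 uM RCC1) frees Rango (0.1 uM) from importin beta (0.25 uM). Pre-read after 5 min compound exposure flags interference.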
Rango-impB inh – prevents formation of the Rango-importin beta complex | Q14974 | Rango CFP/YFP FRET sensor + importin beta, 45 min | Potency, µM (doses to about 92.2 µM), without a hit: top-dose inhibition of complex formation | 340,000 compounds, 0.031% hits | AID 540263; active = rising FRET ratio curve, often small or poorly fitted; inconclusive = mostly compound fluorescence or quenching in the first reads; inactive = flat curves in all reads;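 also: potency is read from the fitted curve at half-maximal effect; 0% = DMSO wells and 100% = buffer wells lacking importin beta; nearly all actives have a fitted effect of over 15% in size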
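Inhibition scored from the CFP 486 nm/YFP 530 nm FRET ratio 45 min after adding 0.125 microM importin beta to 50 nM Rango biosensor preincubated 5 min with compound (room temperature, PBS with DTT, Tween-20, BSA). No-importin wells as positive control.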
miR-21 reporter – miR-21 reporter, rising signal; Potency, µM (doses to about 38.3 µM), for the others: at the top dose reporter change, positive = more light; HeLa miR-21 FLuc reporter, luciferase, 48 h; 340,000 tested, under 10 active; active = well fitted rising curve with a large enough effect; inconclusive = small, poorly fitted or top-dose-only effect; inactive = no such curve, though single readings can be large or run the other way;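 also: % of control where 0% means no effect; miR-21 action dims this reporter so a rising signal means less miR-21 action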
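Luminescence from a firefly luciferase reporter carrying a miR-21 binding site downstream, stably expressed under a CMV promoter in HeLa cells that make miR-21 endogenously, reports miRNA modulation after 48 h compound exposure up to approximately 40uM final.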
* = called active by the depositor; u = inconclusive; x = not tested or not shown; & = joins results of further samples. An excerpt, so the mix of outcomes need not match the whole.

structure,GLA inh pH 4.5,Rango dissoc inh,Rango-impB inh,miR-21 reporter
COc1ccc(N(CC(=O)N2CCOCC2)S(C)(=O)=O)c(OC)c1,x,16%,-0.7%,-3%
COc1cccc(CNC(=O)CCC2CCCN(C(=O)c3csc(C(C)C)n3)C2)c1 (centres undefined),7,-1%,-0.8%,-11%
CC(C)(C)C(=O)NC(=S)Nc1ccc(Cl)c(C(=O)O)c1,-5,-8%,0.5%,-3%
Cc1c(C(=O)Nc2ccccc2N2CCN(C)CC2)oc2ccc(F)cc12,x,-3%,-6.3%,x
O=C(COc1ccccc1Cl)Nc1ccc(C(=O)O)cc1NC(=O)COc1ccccc1Cl,x,13%,0.6%,-2%
COc1cc(C=O)ccc1OCCOCCOc1ccc(Cl)cc1Cl,x,5%,7.0%,x
CO/N=C/CC(=O)c1cnc(-c2ccccc2)s1,-4,-10%,5.6%,-22%
CC(=O)c1cccc(NC(=O)COc2ccccc2)c1,-2,-7%,-1.4%,-29%
COc1cccc(NC(=O)Nc2cnccn2)c1,-3,-15%,-2.4%,-26%
Cc1ccc(Nc2nc(C(=O)N3CCC(C(=O)NCCN4CCOCC4)CC3)cs2)cc1,-5,0%,0.9%,-16%
COc1ccc(-c2nc(SC(C)C(=O)NCC3CCCO3)n[nH]2)cc1 (centres undefined),x,u,-2.3%,x
O=C(NC(=S)Nc1ccccc1Br)c1ccco1,x,6%,3.8%,-52%
O=C(CSc1nc2nn(-c3ccccc3)c(=O)c-2c2n1CCCCC2)NCCc1ccccc1,0,-12%,-1.9%,-3%
O=C(OCC(=O)N1CCN(c2ccccc2)CC1)c1ccccc1NCCO,x,-1%,-1.1%,x
O=C(N=C1SC2CS(=O)(=O)CC2N1c1ccc(F)cc1F)C1CC1 (centres undefined),x,-1%,-1.0%,-1%
CN(CC(=O)Nc1ccc(F)c(F)c1F)C(=O)CCCSc1nc2ccccc2[nH]1,x,2%,-3.0%,x
COC(=O)c1c(NC(=O)C2CC=CCC2C(=O)O)sc(C)c1C (centres undefined),-7,16%,0.7%,-3%
Cc1ccccc1NC(=O)CSc1ccc(-c2ccc(-n3cccn3)cc2)nn1,x,-11%,-4.0%,x
CCOC(=O)c1c(NC(=O)/C=C/C(=O)O)sc(C)c1-c1ccc(C)c(C)c1,-2,8%,0.7%,11%
Cc1ccc(C(=O)Cn2c(NCCO)nc3ccccc32)cc1,2,-4%,-3.9%,-5%
COC(=O)Cc1c(C)nc2nc(-c3cccnc3)[nH]n2c1=O,0,3%,4.4%,0%
C=CCO/N=C(/C)c1ccc(Oc2cnccn2)cc1,0,-8%,0.3%,-25%
CC(=O)Nc1ccc(SC[C@H](C)CN2CC[C@H](O)CCC2=O)cc1,x,-7%,-0.1%,x
O=C(Cn1cccc1)Nc1ccc(F)cc1F,-2,5%,0.9%,-2%
O=C(CNC(=O)c1ccccc1)OCCOc1cccc(Cl)c1,x,15%,-2.8%,x
CC(=O)c1cccc(OCC(O)CN2CCN(C(=O)c3ccco3)CC2)c1 (centres undefined),x,-5%,3.7%,-4%
Cc1ccc(/C=N/N2CCN(c3ccccn3)CC2)cc1,3,-2%,-1.4%,-52%
Cc1c(C(=O)Nc2ccc(F)c(F)c2)oc2ccc(S(=O)(=O)N3CCCCC3)cc12,-8,-2%,3.9%,8%&-2%
O=C(CSc1ccc(Cl)cc1)N1CCOCC1,6,-4%,-2.6%,-31%
O=C1c2cccc3cccc(c23)C(=O)N1c1ccc2ncccc2c1,-12,2%,2.1%,-12%
CCOc1ccc(S(=O)(=O)N2CCCCC2)cc1NC(=O)C1CSC2(C)CCC(=O)N12 (centres undefined),x,-11%,-2.8%,x
Cc1c(C(=O)NCC2CCCO2)oc2ccc3c(c12)C(=O)CC(C)(C)O3 (centres undefined),4,1%,-0.5%,-33%
CCCC(=O)NC1=C(Cl)C(=O)c2ccccc2C1=O,x,2%,-3.9%,x
O=C(NCCNC(=O)c1ccccn1)c1ccccc1,x,10%,-1.5%,0%
O=C(CSc1nnc(-c2cccnc2)o1)Nc1ccc(Cl)cc1,-3,-8%,-2.9%,-10%
CC1CC(C)CN(CCC(=O)Nc2ccc3c(c2)CCC3)C1 (centres undefined),-4,3%,2.6%,-10%
O=C(NCCCNC(=O)c1ccccc1Cl)c1cnccn1,x,6%,9.3%,-5%
Cc1ccc(OCCn2nc3ccccc3n2)c(C)c1,-3,-6%,2.7%,-38%
CCC1CCCCN1CCCNC(=O)c1ccc2c(=O)n(CCOC)c(=O)[nH]c2c1 (centres undefined),x,8%,3.3%,1%
CCCC(=O)Nc1nnc(/C=C/c2ccc(OC)cc2)s1,x,-22%,u,-23%
Cc1ccc(NC(=O)CN(C)C(=O)CNC(=O)c2cccs2)cc1,x,u,-4.2%,x
COc1ccc(-c2cc(=O)oc3c(C)c(OCC(=O)NCC4CCC(C(=O)O)CC4)ccc23)cc1 (centres undefined),x,0%,0.3%,-6%
COc1ccc(NC(=O)CCCNC(=O)c2ccc(Cl)cc2)cc1S(=O)(=O)N1CCCCC1,x,-8%,-0.9%,x
Cc1ccc(S(=O)(=O)N2CCN(C(=O)c3c(-c4ccccc4)noc3C)CC2)c(C)c1,x,8%,-2.4%,-1%
O=C(OCC(=O)N1CCOCC1)c1c(Cl)ccc(Cl)c1Cl,7,12%,6.3%,-22%
CCNCC(=O)Nc1ccc(N2CCOCC2)cc1,-4,-19%,-4.6%,5%
CC(C)N=C(NS(=O)(=O)NC(=O)c1ccccc1)c1ccccc1,-4,10%,0.4%,0%
Nc1nonc1-n1nnc(C(=O)N/N=C/c2ccccc2Cl)c1COc1ccc(F)cc1,-23,-6%,-0.1%,-1%
COc1ccc(CCNC(=S)Nc2ccc(C)cc2C)cc1,-5,4%,0.2%,1%
Cc1cc2c(cc(C(=O)OCC(=O)NCc3cccs3)n2C(C)C)o1,-4,-11%,-2.1%,10%
CN(C)/C=C1\C(=O)N(c2ccc([N+](=O)[O-])cc2)N=C1c1ccccc1,-15,17%,0.3%,-39%
C#CCOCCOCCOCCNc1nc(N2CCN(C(=O)C(CCC(=O)O)n3cc(C(N)CC(C)C)nn3)CC2)nc(N2CCN(C(=O)C(Cc3cc4ccccc4[nH]3)n3cc(C(N)Cc4ccc(O)cc4)nn3)CC2)n1 (centres undefined),4,-36%,-2.2%,4%
Cc1cc(C)n(-c2nc3ccccc3nc2Nc2ccc3[nH]c(=O)[nH]c3c2)n1,-7,u,u,-9%
O=c1cc(CO)[nH]cc1OCc1ccccc1,-3,-2%,0.1%,0%
CCN1C(=O)[C@H]2[C@@H](c3ccc(-c4ccc(C(C)=O)cc4)c(OC)c3)N3CCCC[C@@]3(C(=O)OC)[C@H]2C1=O,x,-7%,-1.2%,x
O=C(NCc1cccc(Cl)c1)C1CCN(c2nnc(N3CCCC3=O)s2)CC1,x,1%,0.3%,-6%
COc1cccc(/C=N/NC(=O)C(c2ccncc2)N2CCOCC2)c1 (centres undefined),-4,5%,7.0%,0%
CCOC(=O)C1CCCN(CCC(=O)Nc2c(C(=O)OC)[nH]c3cc(OC)ccc23)C1 (centres undefined),2,3%,0.7%,-5%
Cc1cc(NC(=O)CSc2nnc(-c3cccnc3)n2N)no1,9,-2%,-1.5%,-1%
O=C(NCc1ccc(F)cc1)C(=O)NCC1OCCN1C(=O)c1cccs1 (centres undefined),-1,-5%,0.1%,-8%

Profiles from above. Order of values: GLA inh pH 4.5 | Rango dissoc inh | Rango-impB inh | miR-21 reporter
`Cc1cc(C)n(-c2nc3ccccc3nc2Nc2ccc3[nH]c(=O)[nH]c3c2)n1` is listed with -7 | u | u | -9%
`O=C(NCc1ccc(F)cc1)C(=O)NCC1OCCN1C(=O)c1cccs1` (centres undefined) is listed with -1 | -5% | 0.1% | -8%

More entries follow.
structure,GLA inh pH 4.5,Rango dissoc inh,Rango-impB inh,miR-21 reporter
CCCNC(=O)c1cc(C)no1,0,-1%,1.2%,-1%
CCS(=O)(=O)c1ccc(Sc2nncn2C)c([N+](=O)[O-])c1,-12,-1%,2.0%,17%
CCN(C(=O)CN1C(=O)COc2ccc(S(=O)(=O)N3CCOCC3)cc21)c1ccc(OC)cc1,x,-14%,0.0%,-2%&-9%
Cc1cc(C)nc(NS(=O)(=O)c2ccc(NC(=O)Nc3ccccc3F)cc2)n1,-5,-5%,-3.3%,-6%
COC(=O)Cc1ccc(NC(=O)c2ccc(C)c(C)c2)cc1,-3,-4%,-0.8%,-6%
COc1ccccc1CCNC(=O)COc1cccc2c1OC(C)(C)C2,x,10%,u,x
CCOC(=O)c1c(C)nsc1NC(=O)C1CCCCC1,x,-17%,-1.4%,-5%
COc1cc(OC)cc(C(=O)Nc2ccccc2-c2nnn(CC(N)=O)n2)c1,2,0%,-4.4%,4%
O=S(=O)(NCC(c1ccc2c(c1)OCO2)N1CCOCC1)c1ccc(F)cc1 (centres undefined),x,-16%,-0.8%,x
CC1CCC(NC(=O)c2ccc(CNc3c(NC4CCCCC4)c(=O)c3=O)cc2)CC1 (centres undefined),3,3%,7.2%,-9%
CCN(CC)CCC(=O)Nc1cccc2c1C(=O)c1ccccc1C2=O,u,-8%,u,u
Cc1ccc(OCC(=O)Nc2ccc(S(=O)(=O)Nc3cc(C)nc(C)n3)cc2)cc1,x,10%,-2.7%,-2%
Cc1[nH]c2ccccc2c1/C=N/NC(=O)CNC(=O)Cc1ccccc1,x,-6%,2.7%,-2%
COc1cc(Cl)c(C)cc1NC(=O)COC(=O)c1cc[n+]([O-])cc1,3,14%,0.4%,4%
COc1ccc(OC)c(C(C)NC(=O)Nc2cccc(C(C)=O)c2)c1 (centres undefined),14,-3%,-4.7%,9%
CC1CC(C(F)F)n2nc(C(=O)Nc3sc4c(c3C#N)CCC(C(C)(C)C)C4)nc2N1 (centres undefined),6,13%,-3.3%,-7%
CCC(C(=O)Nc1cc(C)cc(C)n1)c1ccccc1 (centres undefined),x,1%,0.0%,x
Cc1cc(=O)oc2cc(OCC(=O)N3CCN(C(=O)C4COc5ccccc5O4)CC3)c(Cl)cc12 (centres undefined),x,6%,-0.6%,-3%
CCCCNC(=O)Cn1cnc2ccc(S(=O)(=O)N3CCC(C)CC3)cc2c1=O,-10,-17%,u,-1%
Cc1cc(C(=O)CN2C(=O)NC3(CCCCC3)C2=O)c(C)n1Cc1ccco1,-7,7%,-0.1%,-42%
O=C(Cn1c2[n+](c3ccc(C(F)(F)F)cc31)CCCCC2)c1cccc([N+](=O)[O-])c1,2,-15%,5.4%,-4%
CCCCCCCCC(=O)N/N=C/c1cccc(Br)c1,-28,21%,1.7%,0%
COc1ccc(CCN(C)C(=O)c2c(C)nn(-c3ccccc3)c2C)cc1OC,x,1%,0.3%,-20%
Fc1ccc(Nc2nc(-c3ccncc3)nc3ccccc23)cc1F,-9,-16%,-2.5%,2%
CC1CCN(S(=O)(=O)c2cn(CC(=O)Nc3cccc(C#N)c3)cn2)CC1,x,-20%,-1.8%,5%
CCOC(=O)COc1ncn(-c2ccccc2)n1,-8,30%,6.2%,-2%
COc1ccc(C(=O)NN(C)c2nc(C(F)(F)F)nc3ccccc23)cc1,-10,-10%,-0.5%,24%
O=C(COC(=O)c1ccc(O)cc1)Nc1ccc2c(c1)OCCO2,x,2%,3.2%,x
CC1(c2ccccc2Cl)NC(=O)N(CC(=O)Nc2ccc(N3CCOCC3)cc2)C1=O (centres undefined),x,-6%,-4.7%,x
CCn1cc(/C=C(/C#N)S(=O)(=O)c2ccccc2)cn1,1,-4%,-0.4%,-3%
COc1ccc(S(=O)(=O)NC2CC3CCC2C3)cc1Br (centres undefined),x,-9%,0.7%,-1%
O=C(O)c1ccc(N=Cc2c(O)ccc3ccccc23)cc1,x,-22%,u,3%

Compound activity as filed in PubChem BioAssay.
